Menin MLL FP FL: menin-MLL binding inhibition, fluorescein peptide; 290,000 tested, under 10 active; Fluorescence polarization, fluorescein-MLL peptide displacement from menin; AID 1766; FP activity change, % at 61.4 µM; inconclusive = falling polarisation curve, or a change in total fluorescence; inactive = total fluorescence flat and polarisation flat or rising; no compound was filed as active; the % refers to the polarisation; negative = inhibition;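 also: % of control where 0% means no effect; inhibitors lower the polarisation; unlabelled MLL peptide was the positive control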
Sfp PPTase inh: inhibitors of Bacillus subtilis Sfp phosphopantetheinyl transferase. Q9F4F7. Biochemical Sfp PPTase activity, qHTS. Potency, µM, for inactives: max response, negative = inhibition, usual class: inhibitors. 3.5% of 310,000 active. AID 1490; active = well fitted inhibition curve with a large enough effect; inconclusive = small, poorly fitted or top-dose-only effect, or another doubt; inactive = no such curve, though single readings can be large or run the other way;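 also: the enzyme is Sfp with the accession as filed and its product quenches rhodamine fluorescence; potency is read from the fitted curve at half-maximal effect; 0% = enzyme reaction without inhibitor and -100% = no enzyme wells; top concentration of the series not given in the record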
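Step 1, compound plus 15 nM Sfp-PPTase, 15 min, room temperature. Step 2, add rhodamine-CoA (5 uM) and BHQ-2-YbbR (12.5 uM). Step 3, read 525/598 nm fluorescence at 0 and 30 min.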
* = called active by the depositor; ? = inconclusive; & = joins results of further samples; [ ] = remark or other dose. This is a subset; count on the stated rates, not on these rows.

item	molecule	Menin MLL FP FL	Sfp PPTase inh
1	C=C(CC1(C(C)NP(=O)(c2ccccc2)c2ccccc2)CC1)c1ccccc1 (centres undefined)	1.1	-10%
2	OCC(O)[C@H]1O[C@@H]2O[C@H](C(Cl)(Cl)Cl)O[C@@H]2[C@H]1O (some centres undefined)	-0.8	6%
3	CC1(C)C(O)CC(O)[C@]2(C)C1CC(O)[C@]1(C)C2CC[C@@]2(C)C(c3ccoc3)OC(=O)C3O[C@]312 (some centres undefined)	-0.5	3%
4	O=C1OC(c2ccc(O)c(S(=O)(=O)O)c2)(c2ccc(O)c(S(=O)(=O)O)c2)c2c(Br)c(Br)c(Br)c(Br)c21	10	19%
5	CCOC(=O)N(C)C(=O)CSP(=S)(OCC)OCC	?	?
6	C[C@@H](NC(=O)[C@@H](N)Cc1ccc(O)cc1)C(=O)NCC(=O)N(C)[C@@H](Cc1ccccc1)C(=O)NCCO	-2.3	2%
7	COC(=O)C(O)C(O)(CCC(C)C)C(=O)OC1C(OC)=CC23CCCN2CCc2cc4c(cc2C13)OCO4 (centres undefined)	6.9	11%
8	CC(Cc1ccc(C(C)(C)C)cc1)CN1CC(C)OC(C)C1 (centres undefined)	-30	-2%
9	CC1=C2CC3C(CC=C4C[C@@H](O)CC[C@@]43C)[C@@H]2CC[C@]12O[C@@H]1C[C@H](C)CN[C@H]1[C@H]2C (some centres undefined)	5.8	23%&10%
10	C[C@@H]1C[C@@H]2[C@H]([C@H]3C=C(COC(=O)c4ccccc4)[C@@H](O)[C@]4(O)[C@@H](O)C(OC(=O)c5ccccc5)=C[C@@]14C3=O)C2(C)C	-9.1	10%
11	CC[C@@H](CO)NC(=O)[C@H]1C=C2c3cccc4[nH]cc(c34)C[C@H]2N(C)C1	?	20%
12	COc1ccc(OC)c([C@H](O)[C@H](C)N)c1	-2.7[24.8 µM]	29%
13	NC[C@@H](CC(=O)O)c1ccc(Cl)cc1	?	18%&-7%
14	C[C@@H](C(=O)O)c1ccc(-c2ccccc2)c(F)c1	?	12%&24%
15	COc1ccc2c3c1O[C@H]1C[C@H](O)C=C[C@@]31CCN(C)C2	16	7%
16	COP(=O)(OC)OC=C(Cl)Cl	-1.3	17%
17	CCCCCCCCCCCCCCC[C@@H](O)[C@@H](N)COP(=O)(O)O	-4.0	-6%
18	C#Cc1cccc2c1c(C(=O)c1ccc(Cn3c(C)nc4cnccc43)c(F)c1)cn2C(=O)N(C)C	7.1	-8%
19	CN[C@@H]1C[C@H]2O[C@@](C)([C@@H]1OC)n1c3ccccc3c3c4c(c5c6ccccc6n2c5c31)C(=O)NC4	1.8[11.7 µM]	-26%&1%
20	N[C@H](CCP(=O)(O)O)C(=O)O	27	-25%&-16%
21	CCN(Cc1ccc(Cl)nc1)/C(=C/[N+](=O)[O-])NC	4.8	27%
22	CCC1CN2CCC1CC2C(O)c1ccnc2ccccc12 (centres undefined)	-8.0	4%
23	C/C=C1\C[C@H](C)[C@@](O)(CO)C(=O)OCC2=CCN3CC[C@@H](OC1=O)[C@@H]23	1.4[24.8 µM]	19%
24	COC(=O)C12C/C=C\Cc3ccccc3[C@@H]1CNC2=O (some centres undefined)	-0.3	-22%
25	CCCCC[C@@H](/C=C/C=C\C/C=C\C/C=C\CCCC(=O)O)OO	-0.4	11%&-23%
26	CC(=O)OCC1=C[C@H]2[C@@H]3C(C)(C)[C@]3(OC(=O)Cc3ccccc3)C[C@@H](C)[C@]2(O)[C@@H]2C=C(C)C(=O)[C@@]2(O)C1	1.7	15%
27	CCCCCC[C@H]1C(=O)O[C@H](C)[C@H](NC(=O)c2cccc(NC=O)c2O)C(=O)O[C@@H](C)[C@H]1OC(=O)CC(C)C	-2.9[24.8 µM]	12%
28	O=C1NO[C@H]2[C@@H]1CN[C@@H]2C(=O)O	1.7	-2%
29	CCCSP(=S)(OCC)Oc1ccc(Cl)cc1Cl (centres undefined)	?	?
30	CO[C@H]1C=C2CCN(C)[C@@H]2[C@@H]2c3cc4c(cc3C(=O)O[C@H]21)OCO4	0.7[24.8 µM]	9%

3 of the compounds above, as labelled records:
(28) O=C1NO[C@H]2[C@@H]1CN[C@@H]2C(=O)O
  Menin MLL FP FL = 1.7; Sfp PPTase inh = -2%

(29) CCCSP(=S)(OCC)Oc1ccc(Cl)cc1Cl (centres undefined)
  Menin MLL FP FL = ?; Sfp PPTase inh = ?

(30) CO[C@H]1C=C2CCN(C)[C@@H]2[C@@H]2c3cc4c(cc3C(=O)O[C@H]21)OCO4
  Menin MLL FP FL = 0.7[24.8 µM]; Sfp PPTase inh = 9%

Next results.
item	molecule	Menin MLL FP FL	Sfp PPTase inh
31	COc1cc2c(c(OC)c1OC)-c1ccc(O)c(=O)cc1[C@H](N)CC2	2.2[24.8 µM]	1%
32	CCC1(c2ccccc2)C(=O)NC(=O)N(C(=O)c2ccccc2)C1=O (centres undefined)	-0.5	-7%
33	CN1C2CCCC1CC(=O)C2	-6.3	5%
34	CNC(=O)Oc1ccc2c(c1)C1(C)CCN(C)C1N2C (centres undefined)	-13	-4%
35	C=CCN1C[C@H](C)N([C@@H](c2ccccc2)c2ccc(C(=O)N(CC)CC)cc2)C[C@H]1C	-1.7	15%
36	Nc1nccc(-c2c(-c3ccc(F)cc3)ncn2C2CCNCC2)n1	-2.5	-3%
37	O=c1oc2ccccc2c(O)c1Cc1c(O)c2ccccc2oc1=O	?	-8%&23%
38	C[C@H](CCC(=O)O)[C@H]1CC[C@@H]2[C@H]3CC[C@H]4C[C@H](O)CC[C@]4(C)[C@@H]3CC[C@@]21C	15	-21%&10%
39	CCCN1CCCC2Cc3nc(N)ncc3CC21 (centres undefined)	-5.6	19%
40	Ic1c(C2=CCCCC2)[se]c2ccccc12	-3.2	-13%
41	Nc1c([N+](=O)[O-])ccc(Oc2ccccc2)c1Cl	?	-18%
42	CC1O[C@@H](OC2CC(O)[C@@]3(CO)C4C(O)C[C@@]5(C)C(C6=CC(=O)OC6)CC[C@]5(O)C4CC[C@]3(O)C2)C(O)C(O)C1O (some centres undefined)	-1.1	17%
43	CCN(CC)C(=O)N[C@H]1C=C2c3cccc4[nH]cc(c34)C[C@@H]2N(C)C1	?	4%
44	CCON=O	-4.5	-2%
45	O=C1CN=C(c2ccccc2)c2cc(Cl)ccc2N1CC1CC1	5.0	16%
46	CCN1C[C@@]2(C)CC[C@@H](OC)[C@@]34C2C(O)[C@@]2(OCO[C@]25CC(OC)C2C[C@@]3(O)C5C2O)C14 (some centres undefined)	-6.0	-3%
47	C/C(=C\[C@@H](N)C(=O)O)CP(=O)(O)O	?	12%
48	COc1cc2c(cc1OC)[C@]13CCN4CC5=CCOC6CC(=O)N2[C@@H]1[C@@H]6C5C[C@@H]43 (some centres undefined)	?	-6%
49	C[C@@H]1O[C@H](O[C@@H]2CC[C@@]3(C=O)[C@H]4CC[C@@]5(C)[C@@H](C6=CC(=O)OC6)CC[C@@]5(O)[C@@H]4CC[C@]3(O)C2)C[C@H](O)[C@@H]1O	2.4[24.8 µM]	-3%
50	CC(Cc1ccc(C(C)(C)C)cc1)CN1CCCCC1 (centres undefined)	1.6	4%
51	c1ccc(C(OC2CCCN(CCc3ccc4c(c3)OCO4)C2)c2ccccc2)cc1 (centres undefined)	2.3	?
52	Oc1cc2c(cc1O)[C@H]1c3ccccc3CN[C@H]1CC2	13	40µM*
53	CCCN1CCO[C@@H]2c3cc(O)ccc3OC[C@@H]21	-6.0	56µM*
54	C=C(C)[C@@]12OC3(c4ccccc4)O[C@@H]1[C@@H]1[C@@H]4O[C@]4(CO)[C@@H](O)[C@]4(O)C(=O)C(C)=C[C@H]4[C@@]1(O3)[C@H](C)[C@H]2OC(=O)/C=C/C=C/c1ccccc1	1.4	0%
55	C=CCN1CC[C@]23c4c5ccc(O)c4OC2C(=O)CC[C@]3(O)C1C5 (some centres undefined)	-4.0	-86%
56	COC1=CC2C3Cc4ccc(OC)c(O)c4[C@]2(CCN3C)CC1=O (some centres undefined)	0.3	-1%
57	COc1cc2c(cc1OC)[C@H](C)NCC2	-4.2[24.8 µM]	15%
58	COP(=O)(OC)[C@@H](O)C(Cl)(Cl)Cl	-4.2[24.8 µM]	20%
59	CC(=O)CC(c1ccc(O)cc1)c1c(O)c2ccccc2oc1=O (centres undefined)	1.4	20%
60	CC1(C)[C@H](C(=O)O[C@H](C#N)c2cccc(Oc3ccccc3)c2)[C@@H]1C=C(Br)Br	-8.4	-23%
61	CCN[C@]1(c2cccs2)CCCCC1=O	-0.4[24.8 µM]	2%
62	CC(C)C[C@H]1C(=O)N2CCC[C@@H]2[C@]2(O)O[C@](NC(=O)[C@@H]3C=C4c5cccc6[nH]c(Br)c(c56)C[C@H]4N(C)C3)(C(C)C)C(=O)N12	?	7%
63	C=C1C2C[C@]3(C4CC5[C@@]6(C)CC[C@H](O)[C@@]5(C3CC2=O)C4[N+]([O-])(CC)C6)[C@@H]1O (some centres undefined)	-4.3	10%
64	CC[N@+]1(C)CCC[C@@H](OC(=O)C(O)(c2ccccc2)c2ccccc2)C1	2.1[24.8 µM]	10%
65	C[N+]1(C)CCc2cc3c(cc2C1C1OC(=O)c2c1ccc1c2OCO1)OCO3 (centres undefined)	-0.6&-1.2	-11%
66	C=C1C/C(=C\C)C(=O)O[C@@H]2CCN3CC=C(COC(=O)[C@@]1(C)O)[C@H]23	4.8[24.8 µM]	14%
67	C=C[C@H]1CN2CCC1C[C@@H]2C(O)c1ccnc2ccccc12 (some centres undefined)	-4.2	14%
68	CC1=CC(=O)C2=C(C)C[C@H](O)[C@H]3[C@H](C)C(=O)O[C@@H]3C12 (some centres undefined)	-9.1	33%[activator]
69	CN(C(=O)Cc1ccc(Cl)c(Cl)c1)[C@@H](CN1CCCC1)c1cccc(OCC(=O)O)c1	-14	-2%
70	O=C1CS[C@@H](c2ccccc2Cl)c2cc(Cl)ccc2N1	0.1	-2%
71	CC(C)NC(C)C	1.1	22%
72	COC(=O)[C@H]1C(=O)c2ccccc2O[C@@](C(=O)OC)(c2ccccc2)[C@@H]1c1ccccc1	-2.7[11.7 µM]	10%
73	C[C@@]12CC[C@H]3[C@@H](CC[C@@H]4C[C@H]5S[C@H]5C[C@]43C)[C@H]1CC[C@H]2O	0.9[24.8 µM]	16%
74	CC(C)=CCCN1CCC(NC(=O)C(O)(c2ccccc2)C2CCCC2)CC1 (centres undefined)	-2.1	5%

Reprinted: nos. 61–74
item	molecule	Menin MLL FP FL	Sfp PPTase inh
61	CCN[C@]1(c2cccs2)CCCCC1=O	-0.4[24.8 µM]	2%
62	CC(C)C[C@H]1C(=O)N2CCC[C@@H]2[C@]2(O)O[C@](NC(=O)[C@@H]3C=C4c5cccc6[nH]c(Br)c(c56)C[C@H]4N(C)C3)(C(C)C)C(=O)N12	?	7%
63	C=C1C2C[C@]3(C4CC5[C@@]6(C)CC[C@H](O)[C@@]5(C3CC2=O)C4[N+]([O-])(CC)C6)[C@@H]1O (some centres undefined)	-4.3	10%
64	CC[N@+]1(C)CCC[C@@H](OC(=O)C(O)(c2ccccc2)c2ccccc2)C1	2.1[24.8 µM]	10%
65	C[N+]1(C)CCc2cc3c(cc2C1C1OC(=O)c2c1ccc1c2OCO1)OCO3 (centres undefined)	-0.6&-1.2	-11%
66	C=C1C/C(=C\C)C(=O)O[C@@H]2CCN3CC=C(COC(=O)[C@@]1(C)O)[C@H]23	4.8[24.8 µM]	14%
67	C=C[C@H]1CN2CCC1C[C@@H]2C(O)c1ccnc2ccccc12 (some centres undefined)	-4.2	14%
68	CC1=CC(=O)C2=C(C)C[C@H](O)[C@H]3[C@H](C)C(=O)O[C@@H]3C12 (some centres undefined)	-9.1	33%[activator]
69	CN(C(=O)Cc1ccc(Cl)c(Cl)c1)[C@@H](CN1CCCC1)c1cccc(OCC(=O)O)c1	-14	-2%
70	O=C1CS[C@@H](c2ccccc2Cl)c2cc(Cl)ccc2N1	0.1	-2%
71	CC(C)NC(C)C	1.1	22%
72	COC(=O)[C@H]1C(=O)c2ccccc2O[C@@](C(=O)OC)(c2ccccc2)[C@@H]1c1ccccc1	-2.7[11.7 µM]	10%
73	C[C@@]12CC[C@H]3[C@@H](CC[C@@H]4C[C@H]5S[C@H]5C[C@]43C)[C@H]1CC[C@H]2O	0.9[24.8 µM]	16%
74	CC(C)=CCCN1CCC(NC(=O)C(O)(c2ccccc2)C2CCCC2)CC1 (centres undefined)	-2.1	5%

Screens: PubChem, National Center for Advancing Translational Sciences (NCATS)
